From PubChem
TsaE inh: displaces an ADP probe from E. coli YjeE (TsaE) | P0AF67 | purified YjeE, fluorescence polarisation of a bound ADP probe | Potency, µM | 71,000 tested, 0.05% active; active = well fitted falling curve; inconclusive = weaker or top-dose-only fall, or a rising curve; inactive = flat or poorly fitted curve;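 note: top concentration of the series not given in the record; excess ADP was the control for the full effect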
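Fluorescence polarization of a BODIPY Texas Red–ADP probe (2 uM) bound to purified YjeE (10 uM) was read after 15 min room-temperature incubation with compounds. Loss of polarization marks inhibitors; ADP serves as titrated control.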
PK Bst: alters activity of Bacillus stearothermophilus pyruvate kinase; partly purified Bacillus stearothermophilus pyruvate kinase, luminescence ATP production; ribose 5-phosphate activator present at AC10; Potency, µM; 51,000 tested, 1.2% active; in the data active means potency below about 11 µM; inconclusive means mostly about 12 µM to 25 µM; inactive means weaker than that;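 the screen sought inhibitors and activators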;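 note: potency is the fitted concentration of half-maximal effect; scaled between full activation by ribose 5 phosphate and full inhibition by luteolin; about four in five hits inhibit and the cells do not say which; series up to 57 µM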
The depositor's hits bear a star.

`Cc1nn(-c2ccccc2)c2sc(C(=O)C(C#N)c3ccccn3)cc12` (stereo not drawn) gave TsaE inh inactive and PK Bst >57.
`COc1ccc(Oc2ncc3nc(C)c(=O)n(CCc4ccccc4)c3n2)cc1` gave TsaE inh inactive.
Screening O=C1CCCC/C1=C/Nc1ccc2c(c1)OCO2 returned TsaE inh inactive.
CCOc1cc(-c2c(C)c(CC)nc(N)c2C#N)ccc1O was read as TsaE inh inactive and PK Bst >57.
For CCCCn1c(SCC(=O)NCCc2ccc(OC)c(OC)c2)nc2c1c(=O)n(C)c(=O)n2C the results were TsaE inh inactive and PK Bst >57.
`C/C(Cl)=C\Cn1c(N2CCCCCC2)nc2c1c(=O)n(C)c(=O)n2C` gave TsaE inh inactive and PK Bst >57.
`C=CCn1c(CCNC(=O)c2cccs2)nnc1SCC(=O)Nc1cccc(C(C)=O)c1` gave TsaE inh inactive and PK Bst >57.
O=C(CSc1n[nH]c(=O)[nH]c1=O)c1ccccc1 was read as TsaE inh inactive and PK Bst >57.
Screening COc1ccc(C(=O)Nc2ccc(OC)c(OC)c2)cc1 returned TsaE inh inactive and PK Bst inactive.
`CCOC(=O)c1nc(NCc2cccnc2)c2ccccc2n1` gave TsaE inh inactive and PK Bst >57.
`CCOc1cc(C2CC(=O)Nc3cc(C)c(C)cc32)ccc1O` (stereo not drawn) gave TsaE inh inactive and PK Bst >57.
`CCOCCCNc1nc2ccccc2[nH]1` gave TsaE inh inactive and PK Bst >57.
O=C(Nc1cc(=O)[nH]c2ncnn12)c1ccccc1Cl was read as TsaE inh inactive.
For COc1cccc2cc(C(=O)N(C)C)c(=O)oc12 the results were TsaE inh inactive and PK Bst >57.
Screening CCn1c(SC)nc2c(c1=O)SC(C)C2 (stereo not drawn) returned TsaE inh inactive and PK Bst >57.
COc1ccc(C)cc1S(=O)(=O)NC1CCCCC1C (stereo not drawn) was read as TsaE inh inactive and PK Bst >57.
For CCOC(=O)N1CCN(CC(O)COc2c(OC)cccc2OC)CC1 (stereo not drawn) the results were TsaE inh inactive and PK Bst >57.
For COc1ccc2nc(NC(=O)Cc3ccc(OC)c(S(=O)(=O)N4CCOCC4)c3)sc2c1 the results were TsaE inh inactive and PK Bst >11.
O=c1c(-c2cc(F)cc(F)c2)nc2cncnc2n1Cc1ccccc1Cl was read as TsaE inh inactive.
For COc1cc(-c2nnc(COC(=O)C3c4ccccc4Oc4ccccc43)o2)cc(OC)c1OC the results were TsaE inh inactive and PK Bst >57.
`CC(C)C[C@@H](CC(=O)N[C@@H](CCC(=O)O)CC(=O)O)NC(=O)[C@@H]1CCCC[C@H]1NC(=O)C[C@@H](NC(=O)C[C@H](Cc1c[nH]c2ccccc12)NC(=O)[C@@H]1CNCC[C@H]1N)C(C)C` gave TsaE inh inactive.
For CCN1C(=O)C(CC(=O)N2CCN(C(c3ccccc3)c3ccccc3)CC2)N(CC)C1=O (stereo not drawn) the results were TsaE inh inactive and PK Bst >57.
Screening CCN(Cc1ccccc1)C(c1cc2cc(C)cc(C)c2[nH]c1=O)c1nnnn1CCOC (stereo not drawn) returned TsaE inh inactive and PK Bst >11.
For O=C(Nn1cnnc1)c1csc2ccccc12 the results were TsaE inh inactive and PK Bst >57.
For O=C(O)COc1cccc(NC(=O)c2ccccc2)c1 the results were TsaE inh inactive.
`CCC(C)(C)NC(=O)C(OC(=O)c1ccco1)c1ccccc1OC` (stereo not drawn) gave TsaE inh inactive and PK Bst >57.
For COCCn1c(=O)c(-c2ccc(F)cc2)nc2cncnc21 the results were TsaE inh inactive.
`O=C1CCC(=O)N1CCC(c1ccc(F)cc1)c1ccco1` (stereo not drawn) gave TsaE inh inactive and PK Bst >57.
CCOC(=O)C1CCN(Cc2ccc(F)cc2)CC1 was read as TsaE inh inactive and PK Bst >57.
CC(=O)OC(C(=O)NC1CCCCC1)c1ccccc1 (stereo not drawn) was read as TsaE inh inactive and PK Bst >57.
Screening O=C(c1cnccn1)N1CCC2(CC1)CN(c1ccncc1)C2 returned TsaE inh inactive.
Cc1onc(-c2c(F)cccc2Cl)c1C(=O)Nc1cccc(Cn2cccn2)c1 was read as TsaE inh inactive and PK Bst >57.
Screening COC(=O)CCN(C)CCC(=O)OC returned TsaE inh inactive and PK Bst >57.
O=c1cc(Nc2ccc3c(c2)OCCO3)[nH]c(=O)n1Cc1ccc(F)cc1 was read as TsaE inh inactive and PK Bst >57.
For Cc1ccc(C)c2[nH]c(=O)c(CCNC(=O)CC(C)C)cc12 the results were TsaE inh inactive.
For CC(NS(=O)(=O)c1ccc(Cl)cc1)C(c1cccs1)N1CCN(C)CC1 (stereo not drawn) the results were TsaE inh inactive and PK Bst >57.
Screening COc1cc(NC(=O)c2nccnc2C(=O)O)cc(OC)c1 returned TsaE inh inactive.
Screening CCOc1ccc(NC(C)=O)cc1 returned TsaE inh inactive.
`Cc1csc(NC(=O)C2CCCN2C(=O)Oc2ccccc2)n1` (stereo not drawn) gave TsaE inh inactive and PK Bst >57.
Screening Cc1nn2cnc3sc4c(c3c2nc1=O)CCCC4 returned PK Bst >26.
Screening O=C(COc1ccccc1)Nc1nc(-c2cccs2)cs1 returned TsaE inh inactive.
`COc1ccc(NC(=O)NC(C(F)(F)F)C(F)(F)F)cc1` gave TsaE inh inactive.
`COc1cc(C)c(C(N)=O)c(OC)n1` gave TsaE inh inactive and PK Bst >57.
O=C1C(C=NCc2ccccn2)=C(O)c2ccccc21 was read as TsaE inh inactive and PK Bst >11.
`O=C(NCCCCNC(=O)C1CCCC1)C1CCCC1` gave TsaE inh inactive and PK Bst >57.
Screening CCCCS(=O)(=O)Nc1ccc2ncn(C)c(=O)c2c1 returned TsaE inh inactive and PK Bst >57.
Screening Cc1nnc(SCCCn2c(N3CCCCC3)nc3c2c(=O)[nH]c(=O)n3C)s1 returned TsaE inh inactive and PK Bst >57.
`Cc1onc(-c2ccccc2Cl)c1C(=O)Nc1ccc(-c2nnc3n2CCCCC3)cc1` gave TsaE inh inactive and PK Bst >57.
For Cc1ccc(C)c(N(CC(=O)NC2CCCCC2)C(=O)CCC(=O)Nc2ccccn2)c1 the results were TsaE inh inactive and PK Bst >57.
CCN(CC)S(=O)(=O)c1ccc(Cl)c(C(=O)Oc2cccnc2)c1 was read as TsaE inh inactive and PK Bst >57.
Screening CCN(CC)CCNC(=O)CCc1nn(C)c(=O)c2ccccc12 returned TsaE inh inactive and PK Bst >57.
For CN(C)C(CNc1nnnn1-c1ccccc1)c1ccco1 (stereo not drawn) the results were TsaE inh inactive and PK Bst >57.
Nc1n[nH]c(-c2ccccc2)c1-c1ccccc1 was read as TsaE inh inactive.
C=CCSC1=C(C#N)C(c2ccccc2C)CC(=O)N1 (stereo not drawn) was read as TsaE inh inactive and PK Bst >57.
For O=C(NCCc1ccccc1)c1ncn[nH]1 the results were TsaE inh inactive and PK Bst >57.
Screening N=c1n(Cc2ccccc2)c2ccccc2n1CC(O)c1ccccc1 (stereo not drawn) returned TsaE inh inactive and PK Bst >57.
`O=C(NCCCN1CCCC1=O)Nc1ccc(Cl)cc1` gave TsaE inh inactive and PK Bst >57.
`COc1cccc(C2/C(=C(/O)c3ccc(C)cc3)C(=O)C(=O)N2Cc2ccco2)c1` (stereo not drawn) gave PK Bst >26.
`O=C(c1oc(=O)c2ccccc2c1-c1ccccc1)N1CCOCC1` gave TsaE inh inactive and PK Bst >57.
Screening COc1cccc(S(=O)(=O)Nc2ccc(C(=O)N3CCN(C(=O)c4ccco4)CC3)cc2)c1 returned TsaE inh inactive and PK Bst >57.
For COc1ccc(C2(O)CCN(CC(=O)Nc3nccs3)CC2)c(OC)c1 the results were TsaE inh inactive and PK Bst >57.
For COc1ccc(C(=O)NCc2nnc(SCC(=O)N3CCCCC3)o2)cc1OC the results were TsaE inh inactive and PK Bst >57.
CC1(C)c2ccccc2N2CC(=O)N(CC(N)=O)C21C (stereo not drawn) was read as TsaE inh inactive and PK Bst >57.
For O=C(Cn1ccc2ccccc2c1=O)NCCC(=O)N1CCN(C2CCCCC2)CC1 the results were TsaE inh inactive and PK Bst >57.
Screening O=C1CC(N2CCC(O)CC2)C(=O)N1c1ccc(Br)cc1 (stereo not drawn) returned TsaE inh inactive.
Oc1ccc(Cl)cc1/C=N/c1nc2ccccc2[nH]1 was read as TsaE inh inactive.
O=C(NCC1CCCO1)c1cc2n(n1)C(C(F)(F)F)CC(c1ccc(F)cc1)N2 (stereo not drawn) was read as TsaE inh inactive and PK Bst >57.
Screening O=C(c1cnn2c(C(F)(F)F)cc(-c3ccc4c(c3)OCO4)nc12)N1CCCCC1 returned TsaE inh inactive and PK Bst >57.
For O=C(NCc1ccco1)c1ccc(CS(=O)(=O)Cc2ccc(F)cc2)o1 the results were TsaE inh inactive and PK Bst >57.
Screening CCCCOC(=O)CSc1nc2c(c(=O)[nH]c(=O)n2C)n1C/C=C(\C)Cl returned TsaE inh inactive and PK Bst >57.
For Cn1c(=N)c(S(=O)(=O)c2ccc(F)cc2)cc2c(=O)n3ccccc3nc21 the results were TsaE inh inactive and PK Bst >57.
For CCN(CCCNC(=O)CC(C(=O)N1CCc2ccccc21)n1ccnc1)c1ccccc1 (stereo not drawn) the results were TsaE inh inactive and PK Bst >57.
CS(=O)(=O)Nc1cccc(-c2cncnc2-n2ccnc2)c1 was read as TsaE inh inactive.
Screening Cc1nc(NC(=O)CSc2nc3cccnc3n2Cc2ccccc2)sc1C returned TsaE inh inactive and PK Bst >57.
Cc1ccccc1NC(=O)CSc1nnc(-c2ccoc2C)n1CCc1ccccc1 was read as TsaE inh inactive and PK Bst >57.
`O=C(c1cnccn1)N1CCC2(CC1)CCN(c1ccccc1)CC2` gave TsaE inh inactive.
O=C(Nc1nc(-c2ccc(Cl)s2)cs1)c1ccncc1 was read as TsaE inh inactive and PK Bst >57.
For COc1ccc(CCNS(=O)(=O)c2ccc3c(c2)CCN3C(=O)C2CC2)cc1OC the results were TsaE inh inactive and PK Bst >57.
Screening COC(=O)c1ccc(Nc2nc(C)cc(=O)[nH]2)cc1 returned TsaE inh inactive and PK Bst >57.
For Cc1ccc(C(=O)C2=C(O)C(=O)N(Cc3ccccc3)C2c2cccnc2)o1 (stereo not drawn) the results were TsaE inh inactive and PK Bst >57.
For CCCC(=O)Nc1ccc(NC(=O)c2ccco2)c(OC)c1 the results were TsaE inh inactive.
Screening N#CC(C(=O)c1ccco1)c1ccccn1 (stereo not drawn) returned TsaE inh inactive.
For O=C(O)C1CCCCC1C(=O)Nc1ccc(Cl)cc1Cl (stereo not drawn) the results were TsaE inh inactive and PK Bst >57.
Screening CCOC(=O)NC1(NCc2ccccc2)Oc2ccccc2O1 returned TsaE inh inactive and PK Bst >57.
`CCCNC(=O)Cn1cnc2sc(C(=O)NCCN(CC)CC)c(C)c2c1=O` gave TsaE inh inactive and PK Bst >57.
CCOC(=O)c1cc(-c2cc3ccccc3o2)nc2c1c(=O)[nH]c(=O)n2CCOC was read as TsaE inh inactive and PK Bst >57.
For COc1cc2c(cc1OC)CN(C(=O)NS(=O)(=O)c1ccc(C)cc1)CC2 the results were TsaE inh inactive and PK Bst >57.
Cn1nc(CC(=O)Nc2cccnc2N2CCOCC2)c2ccccc2c1=O was read as TsaE inh inactive and PK Bst >57.
`O=C(Oc1cccc2c(O)cccc12)c1ccccc1` gave TsaE inh inactive and PK Bst >57.

Already shown: four of the compounds above.
`CCOCCCNc1nc2ccccc2[nH]1` gave TsaE inh inactive and PK Bst >57.
O=C(Nc1cc(=O)[nH]c2ncnn12)c1ccccc1Cl was read as TsaE inh inactive.
For COc1cccc2cc(C(=O)N(C)C)c(=O)oc12 the results were TsaE inh inactive and PK Bst >57.
Screening CCn1c(SC)nc2c(c1=O)SC(C)C2 (stereo not drawn) returned TsaE inh inactive and PK Bst >57.

Grouped by structure: those above with a Cl atom
`C/C(Cl)=C\Cn1c(N2CCCCCC2)nc2c1c(=O)n(C)c(=O)n2C` gave TsaE inh inactive and PK Bst >57.
O=C(Nc1cc(=O)[nH]c2ncnn12)c1ccccc1Cl was read as TsaE inh inactive.
O=c1c(-c2cc(F)cc(F)c2)nc2cncnc2n1Cc1ccccc1Cl was read as TsaE inh inactive.
Cc1onc(-c2c(F)cccc2Cl)c1C(=O)Nc1cccc(Cn2cccn2)c1 was read as TsaE inh inactive and PK Bst >57.
For CC(NS(=O)(=O)c1ccc(Cl)cc1)C(c1cccs1)N1CCN(C)CC1 (stereo not drawn) the results were TsaE inh inactive and PK Bst >57.
`Cc1onc(-c2ccccc2Cl)c1C(=O)Nc1ccc(-c2nnc3n2CCCCC3)cc1` gave TsaE inh inactive and PK Bst >57.
CCN(CC)S(=O)(=O)c1ccc(Cl)c(C(=O)Oc2cccnc2)c1 was read as TsaE inh inactive and PK Bst >57.
`O=C(NCCCN1CCCC1=O)Nc1ccc(Cl)cc1` gave TsaE inh inactive and PK Bst >57.
Oc1ccc(Cl)cc1/C=N/c1nc2ccccc2[nH]1 was read as TsaE inh inactive.
Screening CCCCOC(=O)CSc1nc2c(c(=O)[nH]c(=O)n2C)n1C/C=C(\C)Cl returned TsaE inh inactive and PK Bst >57.
O=C(Nc1nc(-c2ccc(Cl)s2)cs1)c1ccncc1 was read as TsaE inh inactive and PK Bst >57.
For O=C(O)C1CCCCC1C(=O)Nc1ccc(Cl)cc1Cl (stereo not drawn) the results were TsaE inh inactive and PK Bst >57.

A portion of the library, so the mix of outcomes need not match the whole.
